Screens as filed in PubChem.
D2 PAM: human D2 receptor positive allosteric modulation; AID 624464; DiscoveRx D2 beta-arrestin cells, luminescence, 90 min; 100% = 57 uM dopamine signal; P14416; hit rate 0.23% among 360,000; potentiation, % (concentration not given with the values); active = potentiation of 50% or more; inconclusive = 30% to 50%; inactive = 30% or less;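 note: compound concentration not given in the record; tested on top of an EC20 dose of dopamine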
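D2 cells co-treated with compound plus 50 nM dopamine (EC20) for 90 min at 37 deg C to detect potentiation. Beta-arrestin recruitment was read as enzyme-fragment luminescence after 1 h at ambient temperature. Full response was set by 57 uM dopamine.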
D2 agonist: agonists of human D2 dopamine receptor (beta-arrestin); P14416; DiscoveRx PathHunter D2 beta-arrestin, luminescence, 90 min; 100% = 57 uM dopamine signal; activation, % (concentration not given with the values); hit rate 0.084% among 360,000; AID 624465; in the data active = activation above about 40%; inconclusive = about 15% to 40%; inactive = below about 15%; note: compound concentration not given in the record; the text of the record calls up to 30% inactive
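Agonist mode: compounds alone added to overnight-plated D2 PathHunter cells for 90 min at 37 C, with 57 uM final dopamine (EC100) defining full response. Beta-arrestin recruitment detected by chemiluminescent reagent, read after 1 h at ambient temperature.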
TRPML1 blocker: blocks the human TRPML1 channel | TRPML1-inducible cells, Ca2+ dye fluorescence, FDSS; hits give low values; inhibition of EC80 agonist-evoked calcium signal | activity change, negative = inhibition, % (concentration not given with the values) | hit rate 0.02% among 390,000 | AID 624415; in the data active means activity change below about -50%; inconclusive means about -30% to -50%; inactive means above about -30%;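 note: stimulus is agonist 54-4 at its EC80 concentration; % is set by controls: 0 for no effect and ±100 for the full control effect; compound concentration not given in the record; the text of the record puts the active cut at -80%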
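Tet-induced TRPML1-DL cells loaded with Ca8 no-wash calcium dye were read kinetically on FDSS. Compound addition was followed by EC80 agonist 54-4 (4 uM final); inhibition was read over 110 s.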
TRPML1 ag: activates the human TRPML1 channel. Q9GZU1. TRPML1-expressing cells, Ca2+ dye fluorescence, FDSS; host cell line not named in the record; reference of the full effect not given here. activation, % (no concentration beside the values). hit rate 0.12% among 410,000. AID 624414; in the data active = activation above about 50%; inconclusive = about 30% to 50%; inactive = below about 30%; note: 0% is about no effect; the text of the record puts the active cut at 80%
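Tetracycline-induced TRPML1-DL cells are seeded and incubated overnight before loading with a no-wash Ca2+ dye and quencher. Agonist activity is taken from the 110 s fluorescence read following compound pin-transfer on an FDSS, before EC80 54-4 challenge.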
Six1-Eya2 blk: Six1/Eya2 interaction inhibition; AlphaScreen GST-Six1/His-Eya2 binding, biochemical; hits give low values; control for the full effect not named in the record; activity change, % (concentration not given with the values); Q15475+O00167; AID 651725; hit rate 0.56% among 360,000; in the data active = activity change below about -65%; inconclusive = about -30% to -65%; inactive = above about -30%; note: % is set by controls: 0 for no effect and ±100 for the full control effect
Target sequence (O00167 whole entry, looked up): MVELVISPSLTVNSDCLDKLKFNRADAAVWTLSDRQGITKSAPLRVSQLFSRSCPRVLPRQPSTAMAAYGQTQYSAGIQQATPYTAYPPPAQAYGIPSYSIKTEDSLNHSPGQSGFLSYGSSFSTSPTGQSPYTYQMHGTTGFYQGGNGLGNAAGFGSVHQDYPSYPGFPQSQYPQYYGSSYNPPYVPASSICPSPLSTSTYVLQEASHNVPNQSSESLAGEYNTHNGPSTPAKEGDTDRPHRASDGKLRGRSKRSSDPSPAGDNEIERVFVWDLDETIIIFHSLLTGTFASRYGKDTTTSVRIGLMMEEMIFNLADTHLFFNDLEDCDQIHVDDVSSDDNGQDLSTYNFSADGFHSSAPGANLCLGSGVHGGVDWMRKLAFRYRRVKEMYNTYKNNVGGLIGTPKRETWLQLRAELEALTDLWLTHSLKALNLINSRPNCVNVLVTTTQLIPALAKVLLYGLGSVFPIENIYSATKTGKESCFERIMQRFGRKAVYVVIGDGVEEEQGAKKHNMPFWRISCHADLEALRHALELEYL
Target sequence (Q15475 whole entry, looked up): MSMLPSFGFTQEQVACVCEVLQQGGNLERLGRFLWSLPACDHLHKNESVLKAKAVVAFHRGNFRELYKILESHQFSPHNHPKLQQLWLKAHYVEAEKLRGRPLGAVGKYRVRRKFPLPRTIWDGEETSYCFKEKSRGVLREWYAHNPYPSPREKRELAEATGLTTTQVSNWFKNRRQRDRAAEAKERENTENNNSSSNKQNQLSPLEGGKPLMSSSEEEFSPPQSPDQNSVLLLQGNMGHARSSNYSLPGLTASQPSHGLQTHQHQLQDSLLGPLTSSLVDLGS
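AlphaScreen luminescence read after one hour at 37 °C in darkness. Pin-transferred compounds met GST-Six1 and His-Eya2 protein (5X stock 250 nM/500 nM) plus glutathione donor and Ni-chelate acceptor beads (5X, 50 ug/mL).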
PINK1 modulator: changes PINK1 expression | PINK1 immunofluorescence, high-content cytometry, 24 h | Potency, µM (doses to about 76.6 µM), for the others: at the highest dose activation (PINK1 increase), usual class: activators | hit rate 0.2% among 410,000; active = well fitted activation curve with a large enough effect; inconclusive = small, poorly fitted or top-dose-only effect; inactive = flat fitted curve, though single readings scatter; cell line not stated here;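 note: potency is the fitted concentration of half-maximal effect; % of control where 0% means no effect; nearly all actives have a fitted effect of over 65% in size; a mitochondrial uncoupler was the plate control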
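Compound titrations (5 concentrations, 24 h) on a stable cell line; DMSO and CCCP controls. Endpoint: fixed-cell PINK1 immunofluorescence with mitochondrial, cell and nuclear markers, scanned by microplate cytometer.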
An asterisk follows results filed as active; ? = inconclusive; nt = no result given; & = joins results of further samples; [ ] = another dose, or the depositor's remark.

SMILES	D2 PAM	D2 agonist	TRPML1 blocker	TRPML1 ag	Six1-Eya2 blk	PINK1 modulator
CCOc1ccc(CCNC(=O)CCN2C(=O)COc3ccccc32)cc1OCC	5	-3.8	32	-0.4	0	1.3%[38.3 µM]
CC(C)c1ccc(S(=O)(=O)N2CCN(C(=O)CN3C(=O)NC4(CCCCC4)C3=O)CC2)cc1	-4	-2.6	-3	2.0	0	-0.3%
COc1ccc(-c2c(C)c3ccc(O)c(CN4CCCC4)c3oc2=O)cc1OC	nt	nt	-11	0.4	nt	1.5%
O=S1(=O)CC/C(=N/Nc2ccccn2)c2cc(F)ccc21	-6	-6.0	-5	0.1	-3	4.1%
CC(C)(C)NC(=O)c1ccc(COCC(F)(F)F)o1	-22	-1.3	27	0.6	-1	nt
COCCC(=O)N1CCCC(CCC(=O)NCc2ccc(F)c(F)c2)C1 (stereo unspecified)	1	2.3	28	0.9	3	-1.1%
CCC(C)[C@H](N)C(=O)NC[C@H]1CC[C@H](C(=O)N[C@@H](Cc2ccccc2)C(=O)O)CC1 (stereo partly specified)	2	-1.2	13	0.6	2	4.8%
Cc1cc(C)c(S(=O)(=O)N2CCC(C(=O)NCc3ccncc3)CC2)c(C)c1	-2	-1.5	-2	-0.1	3	-3.2%
COC(=O)C1C(c2ccccc2)C(C(=O)N2CCOCC2)C1c1ccccc1 (stereo unspecified)	-12	-0.9	12	0.5	-1	-1.4%
CCOC(=O)c1cc(NC(=O)N2CCOCC2)c(C)nc1C	-16	-2.8	2	0.6	-5	-0.5%
Nc1nnnn1/N=C/c1cccc(O)c1	-11	-0.3	0	-0.8	-9	-3.1%
COc1ccc(NC(=O)CSc2nccn2Cc2ccccc2)cc1	-12	0.3	-6	1.1	13	-0.2%
Cn1c(N)c(C(=O)COC(=O)/C=C/c2cccc(F)c2)c(=O)n(C)c1=O	-4	3.9	-1	1.3	-11	2.9%
O=C(NCCc1ccc(Cl)cc1)C1CCCN(c2ncnc3c2nc2n3CCCCC2)C1 (stereo unspecified)	-3	-4.0	-10	-0.5	17	2.9%
N#CCCn1cc(C(=O)O)c(-c2cc3ccccc3o2)n1	14	-6.5	2	-0.5	2	-1.1%
CCCCC[C@@H]1C=C(C(=O)O)[C@H](c2ccc3c(c2)OCO3)N1S(=O)(=O)c1ccc(C)cc1	nt	-0.2	-19	-0.5	-5	-1.2%
Cc1ccc(C(=O)Cn2c(C)cc(C)c(C#N)c2=O)cc1	-24	-0.5	-8	2.7	5	-2.1%
COC(=O)c1ccc(CSC2=NC[C@@H]3[C@@H]4C(=O)N(Cc5ccccc5)C(=O)[C@@H]4[C@](Cc4ccccc4)(C(=O)OC)N23)cc1	-11	-2.0	7	1.4	-8	-1.1%
CCn1cc(C(=O)N2CCN(c3cccc(Cl)c3)CC2)c2cc(OC)c(OC)cc2c1=O	-2	1.7	1&-8	-0.4&0.2	-24	3.3%&1.3%
COC(=O)C1CCN(Cc2cc(=O)oc3cc(OC)ccc23)CC1	-1	9.9	3	-0.3	8	3.9%
O=C(CNS(=O)(=O)c1ccccc1F)Nc1ccc(N2CCOCC2)cc1	-17	-3.9	-1	-0.5	4	19%[38.3 µM]
CCc1nc2ccc(C(=O)Nc3cccc(OCC(=O)N(C)C)c3)cn2c1N(CCN(C)C)CC1CC1	1	2.1	-13	0.6	9	2.3%
Cc1cc(C)c(NC(=O)CCn2nnc3ccccc32)c(C)c1	-1	1.7	7	0.0	69	1.7%
Cc1ccc(N2CC(C(=O)OCC(=O)Nc3ccccc3F)CC2=O)cc1 (stereo unspecified)	-36	1.7	-5	2.1	3	-1.6%
CCOc1ccc(-n2cc(C(=O)NCCOC)c3cc(OC)c(OC)cc3c2=O)cc1	2	-0.9	-23	1.1	4	2.8%
COc1ccc(CNC(=O)C(CC(C)C)NS(=O)(=O)c2ccc3c(c2)oc(=O)n3C)cc1 (stereo unspecified)	nt	nt	-13	-0.5	nt	3.5%
COc1ccc(S(=O)(=O)NNC(=O)c2cc3ccccc3o2)cc1	0	-1.4	0	-0.6	1	0.9%
CCCCn1c(N)c(NCC)c(=O)[nH]c1=O	0	8.2	3	2.2	-5	-1.9%
COc1ccc(COC(=O)c2ccc(Cl)c(S(=O)(=O)N3CCOCC3)c2)cc1F	-9	-3.1	9	0.7	13	-0.8%
NC(=S)N/N=C/c1coc2cc(Cl)ccc2c1=O	6	-1.9	7	0.4	3	5.0%
Cc1ccc(N2C(=O)/C(=C\c3ccc(C(C)C)cc3)N=C2SC2CCOC2=O)cc1 (stereo unspecified)	20	-4.7	11	0.0	-10	21%
Cc1ccc(NC(=O)CN2C(=S)NC(C)(C)CC2C)cc1Cl (stereo unspecified)	-8	-4.9	-10	-0.1	-12	1.3%
O=C(CCN1C(=O)C2C3C=CC(C3)C2C1=O)N1CCN(c2ccccn2)CC1 (stereo unspecified)	5	-0.9	-26	-0.3	-4	2.5%[38.3 µM]
C(=N\Nc1nc2ccccc2[nH]1)/c1ccc2c(c1)OCCO2	-15	4.4	41	0.7	-15	0.5%
O=C(NNC(=O)c1ccc2[nH]c(=O)c(=O)[nH]c2c1)c1cccc(Br)c1	-14	-0.9	-3	-0.5	4	-0.4%
CC(C)(C)C1CCc2c(sc(NC(=O)c3cccs3)c2C(=O)N2CCCCC2)C1 (stereo unspecified)	-1	-4.4	2	0.5	-1	5.8%

Fetched one by one from above, three records:
SMILES	D2 PAM	D2 agonist	TRPML1 blocker	TRPML1 ag	Six1-Eya2 blk	PINK1 modulator
COc1ccc(S(=O)(=O)NNC(=O)c2cc3ccccc3o2)cc1	0	-1.4	0	-0.6	1	0.9%
COc1ccc(CNC(=O)C(CC(C)C)NS(=O)(=O)c2ccc3c(c2)oc(=O)n3C)cc1 (stereo unspecified)	nt	nt	-13	-0.5	nt	3.5%
COC(=O)C1CCN(Cc2cc(=O)oc3cc(OC)ccc23)CC1	-1	9.9	3	-0.3	8	3.9%

Next results follow.
SMILES	D2 PAM	D2 agonist	TRPML1 blocker	TRPML1 ag	Six1-Eya2 blk	PINK1 modulator
CNC(=O)c1cc2cc(OC)ccc2n1CCN(C)C	-16	-2.3	20	1.7	-1	0.2%
CCCN(CCC)c1ccc(/C=C/c2ccc3cc(OCC)ccc3n2)cc1	-3	1.0	1	22	8	5.5%
O=C(NC1CCCCC1)NC1CC2CCC(C1)N2Cc1nnnn1Cc1ccc2c(c1)OCO2 (stereo unspecified)	-15	-1.5	0	0.0	-3	1.2%
COc1ccc(OCCn2c(NC(=O)c3ccco3)nc3ccccc32)cc1	2	-1.2	17	2.0	-16	-1.7%
Cc1cc(C)cc(NC2=CC(c3cccc(F)c3)N(c3cc(C)cc(C)c3)C2=O)c1 (stereo unspecified)	nt	nt	-21	1.0	nt	1.0%
CCCCn1cc(S(=O)(=O)c2ccc(OC)cc2)c(=O)c2cc(F)c(F)cc21	nt	nt	1	0.2	nt	0.9%
COc1ccccc1/C=C/C(=O)/C=C/c1ccccc1O	-7	-2.7	-2	-0.9	6	0.8%
O=S(=O)(NCC1CCCO1)c1ccc2ccccc2c1 (stereo unspecified)	-1	1.9	-10	0.0	7	-1.3%[38.3 µM]
N#Cc1c(NC(=O)CSc2ncnc3c2cnn3-c2ccccc2Cl)sc2c1CCCC2	5	-1.5	-2	1.4	0	0.5%
CCOC(=O)c1cnn(CCOC(=O)C(C)(C)C)c1NC(=O)C(C)(C)C	-6	1.0	-4	1.4	5	2.5%[38.3 µM]
CCOC(=O)c1ccc(NC(=O)Nc2c(C)nn(C)c2C)cc1	-2	-1.1	3	-0.2	-1	2.8%[38.3 µM]
Cc1nc2ccc(Cl)cn2c1[N+](=O)[O-]	-8	-0.5	3	0.8	6	-0.3%

Single records, as listed above. Order of values: D2 PAM | D2 agonist | TRPML1 blocker | TRPML1 ag | Six1-Eya2 blk | PINK1 modulator
Shown for CCCN(CCC)c1ccc(/C=C/c2ccc3cc(OCC)ccc3n2)cc1 = -3 | 1.0 | 1 | 22 | 8 | 5.5%
Shown for COc1ccc(OCCn2c(NC(=O)c3ccco3)nc3ccccc32)cc1 = 2 | -1.2 | 17 | 2.0 | -16 | -1.7%
Shown for Cc1cc(C)cc(NC2=CC(c3cccc(F)c3)N(c3cc(C)cc(C)c3)C2=O)c1 (stereo unspecified) = nt | nt | -21 | 1.0 | nt | 1.0%
Shown for O=C(NC1CCCCC1)NC1CC2CCC(C1)N2Cc1nnnn1Cc1ccc2c(c1)OCO2 (stereo unspecified) = -15 | -1.5 | 0 | 0.0 | -3 | 1.2%

New compounds follow
SMILES	D2 PAM	D2 agonist	TRPML1 blocker	TRPML1 ag	Six1-Eya2 blk	PINK1 modulator
CC(C)C[C@@H](CN1CCC[C@@H]1CN1C(=S)NC[C@@H]1Cc1ccccc1)N1C[C@H](Cc2ccc(O)cc2)N(CC2CCCCCC2)C1=S	-3	-2.0	11	-0.3	-4	?
O=C(NC1CCCCC1)C(c1ccccc1)N1CCOCC1 (stereo unspecified)	-3	-2.8	12	-1.1	2	0.4%
COCCn1c(=O)[nH]c2cc(C(=O)N3CCN(c4ccc(Cl)cc4)CC3)ccc2c1=O	-1	-0.1	0&-2	0.2&0.5	0	0.8%&3.8%
COc1ccc(OC)c(S(=O)(=O)N(C)CC(=O)Nc2ccc3c(c2)OCO3)c1	-8	2.1	15	-0.8	4	-1.0%
COc1ccc(S(=O)(=O)NCC2CCCN(C(=O)c3sccc3C)C2)cc1 (stereo unspecified)	-7	-28	8	0.9	2	-1.3%
O=c1oc(-c2cccs2)nc2scc(-c3cccs3)c12	-5	3.1	13	1.5	-6	12%
O=C(NCC1CCCO1)c1ccc2c(c1)N(Cc1ccc(Cl)cc1)CCS2 (stereo unspecified)	-5	1.0	15	1.4	-17	3.3%
CCOC(=O)Cc1ccc(NC(=O)NCc2c(-n3cccc3)sc3c2CCCC3)cc1	nt	nt	-7	-0.2	nt	16%
COc1cccc(NC(=S)NC(=O)c2c(Cl)c(C)nn2C)c1	-6	-5.7	73	3.2	7	29%
CCc1nnc(NC(=O)CSCc2cc(=O)n3ccsc3n2)s1	1	-0.4	0	-0.7	2	-0.6%
CC[C@]12c3[nH]c4ccccc4c3CCN1C(=O)C(CC(=O)NCCCn1ccnc1)C[C@@H]2C(=O)N1CCN(C(=O)C2CC2)CC1 (stereo partly specified)	nt	1.9	24	0.3	4	0.0%
Cc1ccc([C@@H]2C[C@H]3[C@@H](CN2S(=O)(=O)c2ccc(Cl)cc2)C(=O)C[C@@H](c2ccc(C)cc2)N3S(=O)(=O)c2ccc(Cl)cc2)cc1	1	-9.7	-11	2.1	0	0.3%
COc1ccc(/C=C(/NC(=O)c2ccccc2)C(=O)N/N=C/c2ccc3c(c2)OCO3)cc1OC	-14	-2.4	9	0.1	-3	nt
CN(C(=O)c1cc2nc(-c3ccco3)cc(C(F)(F)F)n2n1)c1ccc(OC(F)(F)Cl)cc1	nt	nt	4	0.5	nt	2.1%
O=C(c1ccc(OC2CCN(CCc3ccccc3)CC2)cc1)N1CCCC(O)C1 (stereo unspecified)	-17	-4.4	3	0.6	0	-1.4%
CCCCC(CC)COC1(c2ccccc2)OC(=O)c2ccccc21 (stereo unspecified)	-12	-4.6	-11	1.4	39	1.7%[38.3 µM]
CCn1cc(C=C2C(=O)c3ccccc3C2=O)c2ccccc21	-4	-8.1	-9	7.9	2	4.8%
O=C(NCCNCc1ccc(F)cc1)c1ccco1	-18	-4.3	-25	-0.2	6	-0.9%
